Source: PubChem BioAssay (Broad Institute)
rRNA inh HTS: reduced GFP signal of wild-type E. coli, primary screen, bacterial rRNA inhibitor project, GFP/RFP fluorescence, OD600, single point; E. coli WT GFP vs humanized-ribosome RFP mutants, 24 h; active compounds read low; DMSO median 0, no signal -100; GFP signal change (wild-type ribosome), % (no concentration beside the values); 350,000 compounds, 1.6% hits;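 active = significant combined selectivity score with lowered wild-type GFP, culture density cut under 30%, mutant RFP and density less affected; inactive = any of these conditions unmet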; note: one replicate is shown; some compounds called inactive have numbers as strong as hits
rRNA inh HTS OD600: also measured in rRNA inh HTS; calls as there; OD600 change, %; measured here: OD600 growth;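 optical density of the mix in the first replicate; 0 = DMSO median and -100 = no signal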
rRNA inh HTS RFP: second read-out of rRNA inh HTS, no call of its own (marks repeat the call); RFP signal change, %; measured here: RFP humanized mutant strains;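 first replicate; 0 = DMSO median and -100 = no signal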
Numbers without * were called inactive; & = joins results of further samples. A portion of the library. The share of hits here may be higher or lower than overall.

no.	SMILES	rRNA inh HTS	rRNA inh HTS OD600	rRNA inh HTS RFP
1	COc1cccc(-c2ccc(C3[C@H]4CNC[C@@H]3N4S(=O)(=O)c3cn(C)cn3)cc2)c1 (stereo partly specified)	5.0&5.5	9.9&2.9	1.9&-0.8
2	O=C(C[C@@H]1CC[C@@H](NC(=O)C2CCOCC2)[C@H](CO)O1)NCc1ccccc1Cl	1.6	0.4	-0.1
3	O=C(C[C@H]1C[C@H]2c3cc(NC(=O)Cc4ccncc4)ccc3O[C@H]2[C@@H](CO)O1)NCc1cc(F)ccc1F	2.4	7.9	0.9
4	CC(C)C(=O)Nc1ccc2c(c1)C(=O)N(C)[C@H]1CC[C@H](CC(=O)Nc3cccc(F)c3)O[C@@H]1CO2	-1.5	3.5	-3.7
5	CCNC(=O)[C@H]1[C@H](CO)[C@H]2Cn3c(ccc(C4=CCCCC4)c3=O)[C@H]2N1Cc1ccc2c(c1)OCO2	-6.3	-10.4	1.8
6	Cc1noc(C)c1NC(=O)N(C)C[C@H]1Oc2ccc(NS(=O)(=O)c3ccc(F)cc3)cc2C(=O)N([C@@H](C)CO)C[C@H]1C	2.4	9.3	-1.2
7	Cc1ccc(S(=O)(=O)N(C)C[C@@H]2OCCCC[C@@H](C)Oc3ccc(NS(=O)(=O)c4ccc(F)cc4)cc3C(=O)N([C@H](C)CO)C[C@@H]2C)cc1	2.6	3.4	-8.1
8	C[C@@H]1CCCCO[C@H](CN(C)C(=O)c2ccccc2)[C@H](C)CN([C@H](C)CO)C(=O)c2cc(NS(=O)(=O)c3ccc(Cl)cc3)ccc2O1	3.6	1.4	2.6
9	CO[C@@H]1CN(C)C(=O)c2cc(NC(=O)Cc3ccccc3)ccc2OC[C@H](C)N(C)C[C@H]1C	2.1	3.4	-0.7
10	O=C(C[C@@H]1CC[C@H]2[C@@H](COC[C@H](O)CN2Cc2ccncc2)O1)NCc1ccccc1Cl	1.6	-2.8	-1.9
11	C[C@@H]1CN([C@@H](C)CO)C(=O)c2cccc(NC(=O)Nc3ccccc3)c2O[C@H]1CN(C)C(=O)NC1CCCCC1	-3.1	-0.7	0.0
12	Cc1ccccc1S(=O)(=O)NCC[C@H]1CC[C@H](NC(=O)C2CC2)[C@@H](CO)O1	1.9	-1.7	0.4
13	CC(C)NC(=O)N(C)C[C@@H]1Oc2ccc(NC(=O)Nc3ccc4c(c3)OCO4)cc2CC(=O)N([C@H](C)CO)C[C@@H]1C	2.3	-0.9	-2.0
14	O=C(C[C@@H]1CC[C@@H]2[C@H](COC[C@@H](O)CN2C(=O)c2ccc3c(c2)OCO3)O1)NC1CCC1	1.6	0.9	20.0
15	CNC[C@@H]1Oc2cc(-c3cncnc3)ccc2S(=O)(=O)N([C@@H](C)CO)C[C@H]1C	6.1	13.2	1.0
16	N#C[C@H]1[C@@H](c2ccccc2-c2ccc(F)cc2)[C@@H](CO)N1C(=O)NC1CCCC1	-5.6	-13.0	0.6
17	CO[C@H]1CC[C@H]2CCOc3ccc(C#N)cc3C(=O)N(C)C[C@H](C)C(=O)N(C)C[C@H]1O2	5.7	-0.6	-1.8
18	CNC(=O)C[C@H]1CC[C@@H]2[C@H](COc3ccc(NC(=O)c4ccccc4OC)cc3C(=O)N2C)O1	-7.2	2.7	1.3
19	C#CCN(C[C@H]1[C@H](OC(=O)Nc2cccs2)[C@H](OC(=O)Nc2cccs2)CN(C(=O)OC(C)C)N1C(=O)OC(C)C)S(=O)(=O)c1ccc(C)cc1	32.3	18.1	6.4
20	COc1ccc2c3c([nH]c2c1)[C@@H](CO)N(C(=O)NC(C)C)CC31CN(C(=O)NC2CCCC2)C1	3.0	14.0	-1.7
21	COc1ccc(NC(=O)Nc2ccc3c(c2)C(=O)N([C@@H](C)CO)C[C@H](C)[C@@H](CN(C)S(=O)(=O)c2ccccc2)O3)cc1	-5.5	-0.4	1.7
22	C[C@@H]1CN([C@H](C)CO)C(=O)c2cc(NS(=O)(=O)c3cccs3)ccc2O[C@@H]1CN(C)S(=O)(=O)c1cn(C)cn1	-0.3	3.6	-2.3
23	COc1ccc(C#Cc2ccc([C@@H]3[C@H](CO)N4CCCCN(C(=O)Nc5ccccc5)C[C@@H]34)cc2)cc1	-59.6	-68.2	-10.0
24	Cc1cn([C@H]2C[C@H](O)[C@@H](/C=C/C(=O)NCCc3cccs3)O2)c(=O)[nH]c1=O	1.4	12.4	-2.6
25	C[C@@H]1CN([C@H](C)CO)S(=O)(=O)c2ccc(Br)cc2O[C@H]1CN(C)S(C)(=O)=O	-0.8&5.4	12.0&6.3	1.6&-3.1

Full records, looked up by structure.
O=C(C[C@@H]1CC[C@@H]2[C@H](COC[C@@H](O)CN2C(=O)c2ccc3c(c2)OCO3)O1)NC1CCC1 is listed with rRNA inh HTS: 1.6; rRNA inh HTS OD600: 0.9; rRNA inh HTS RFP: 20.0
C#CCN(C[C@H]1[C@H](OC(=O)Nc2cccs2)[C@H](OC(=O)Nc2cccs2)CN(C(=O)OC(C)C)N1C(=O)OC(C)C)S(=O)(=O)c1ccc(C)cc1 is listed with rRNA inh HTS: 32.3; rRNA inh HTS OD600: 18.1; rRNA inh HTS RFP: 6.4

(list continues)
no.	SMILES	rRNA inh HTS	rRNA inh HTS OD600	rRNA inh HTS RFP
26	CN(Cc1ccc(Cl)cc1)C(C(=O)NC1CCCCC1)c1ccnc2ccccc12 (stereo unspecified)	-7.3	-4.5	-3.7
27	C[C@H]1CN([C@@H](C)CO)C(=O)c2cc(NC(=O)C3CC3)ccc2O[C@@H]1CN(C)Cc1ccc(C(=O)O)cc1	0.6	7.5	-2.6
28	CC1(C(=O)Nc2ccc3c(c2)OCCO3)CCN1C(=O)CC1CCCC1 (stereo unspecified)	3.1	-12.2	-1.1
29	C[C@@H]1CN([C@@H](C)CO)S(=O)(=O)c2ccc(-c3ccc(C(=O)N(C)C)cc3)cc2O[C@H]1CN(C)C(=O)Cc1ccccn1	1.3	-11.3	-6.1
30	CCCNC(=O)Nc1ccc2c(c1)C(=O)N(C)C[C@H](OC)[C@H](C)CN(C(=O)C1CC1)[C@H](C)CO2	1.4	-1.3	-1.6
31	O=C1Nc2ccccc2N=C(c2ccccc2)C1N(C(=O)c1ccnc2ccccc12)c1ccccc1 (stereo unspecified)	-32.2	-35.2	-2.6
32	CC(C)CC#Cc1cnc2c(c1)C(=O)N([C@H](C)CO)C[C@@H](C)[C@@H](CN(C)S(C)(=O)=O)O2	3.0	5.5	2.1
33	C[C@H](NC(=O)C[C@@H]1C=C[C@@H](NS(=O)(=O)c2cccc(F)c2)[C@H](CO)O1)c1ccccc1	5.2	5.7	1.7
34	Cc1noc(C)c1NC(=O)N(C)C[C@H]1Oc2c(NC(=O)Nc3ccc(F)cc3)cccc2C(=O)N([C@@H](C)CO)C[C@H]1C	1.7	3.7	-0.7
35	O=C(c1ccccn1)N1C[C@@H]2[C@H](c3ccccc31)[C@H](CO)N2C(=O)C1CCCCC1	4.5	0.8	0.1
36	C[C@@H]1CN([C@H](C)CO)S(=O)(=O)c2ccc(-c3cccc(C#N)c3)cc2O[C@@H]1CN(C)C(=O)Nc1ccccc1F	-8.5	-11.1	-4.4
37	C[C@@H]1CN([C@H](C)CO)C(=O)c2cc(NC(=O)NC3CCCCC3)ccc2O[C@H]1CN(C)S(=O)(=O)c1ccccc1	-4.0	-7.1	1.3
38	Cc1noc(C)c1NC(=O)Nc1ccc2c(c1)C(=O)N([C@H](C)CO)C[C@H](C)[C@H](CN(C)C(=O)C1CCCCC1)OCCCC[C@@H](C)O2	3.3	3.0	-1.2
39	CCOC(=O)[C@]12CCCC=C1N(Cc1ccc3c(c1)OCO3)C(=O)[C@H](CC(=O)NCCc1ccccc1OC)C2	-6.4	-1.7	0.3
40	C[C@@H]1CCCCO[C@@H](CN(C)C(=O)Cc2ccccc2)[C@H](C)CN([C@@H](C)CO)C(=O)c2cc(NC(=O)CCC(F)(F)F)ccc2O1	0.7	-2.4	0.5
41	Cc1ccc2nc(COC(=O)c3cccnc3Cl)cc(=O)n2c1	-5.3	2.9	-3.2
42	C[C@H]1CN([C@@H](C)CO)C(=O)c2cc(N(C)C)ccc2O[C@H]1CN(C)C(=O)Nc1ccc(C(F)(F)F)cc1	-15.2	-18.4	-0.2
43	COC(=O)C[C@@H]1CC[C@@H]2[C@H](COc3ccc(NC(=O)c4cnccn4)cc3C(=O)N2C)O1	4.6	2.6	-3.0
44	Cc1ccc(S(=O)(=O)Nc2cccc3c2O[C@@H](CN(C)C(=O)Nc2ccc4c(c2)OCO4)[C@@H](C)CN([C@@H](C)CO)C3=O)cc1	-1.6	0.0	0.4
45	C[C@@H]1CN([C@H](C)CO)C(=O)c2c(c3ccccc3n2C)-c2ccccc2CO[C@@H]1CN(C)Cc1cccc2c1OCCCO2	0.9	-10.4	14.7
46	O=C(Nc1ccccc1)N[C@H]1CC[C@H](CCNS(=O)(=O)c2ccccc2F)O[C@@H]1CO	-0.8	-5.7	1.8
47	C[C@@H]1CCCCO[C@@H](CN(C)S(=O)(=O)c2ccc(Cl)cc2)[C@H](C)CN([C@@H](C)CO)C(=O)c2cc(NC(=O)CCCN(C)C)ccc2O1	-0.8	-15.5	22.5
48	CCN1[C@H](C(=O)N2CCc3ccccc3C2)[C@@H](CO)[C@@H]2Cn3c(cccc3=O)[C@@H]21	0.1	-2.3	-2.0
49	C[C@H]1CN([C@@H](C)CO)C(=O)c2cc(NC(=O)CCC(F)(F)F)ccc2O[C@@H]1CN(C)C(=O)Nc1ccc(F)cc1	1.6	-2.6	-0.6
50	COCC(=O)N(C)C[C@H]1Oc2cc(-c3ccc(OC)cc3)ccc2S(=O)(=O)N([C@@H](C)CO)C[C@H]1C	-0.6	2.2	0.5
51	CCCNC(=O)N[C@@H]1CC[C@H](CC(=O)NC2CCCCC2)O[C@@H]1CO	4.1	-0.5	-0.2
52	CN(C)C(=O)CNc1ccn2nc(-c3cccc(Cl)c3)cc2n1	17.1	20.0	10.1
53	C[C@@H]1CN([C@H](C)CO)S(=O)(=O)c2ccc(C#Cc3ccncc3)cc2O[C@@H]1CN(C)C(=O)C1CCC1	-9.1	-18.6	1.4
54	COc1ccc(S(=O)(=O)N(C)C[C@@H]2Oc3ccc(N(C)C)cc3C(=O)N([C@@H](C)CO)C[C@H]2C)cc1	-2.3	4.9	0.8
55	Cc1ccc(-c2ccc3c(c2)O[C@@H](CN(C)C(=O)Nc2ccccc2)[C@@H](C)CN([C@H](C)CO)S3(=O)=O)cc1	-4.2	-2.0	3.4
56	C[C@H](CO)N1C[C@H](C)[C@H](CN(C)Cc2ccc(-c3ccccc3)cc2)Oc2cc(C#CC(C)(C)O)ccc2S1(=O)=O	-3.8	-7.5	4.0
57	Cc1noc(C)c1S(=O)(=O)Nc1ccc2c(c1)C(=O)N([C@@H](C)CO)C[C@@H](C)[C@H](CN(C)Cc1ccncc1)O2	1.6	5.0	-1.2
58	CC(C)C#Cc1ccc2c(c1)O[C@@H](CN(C)C(=O)Nc1ccccc1)[C@H](C)CN([C@H](C)CO)S2(=O)=O	-4.8	-22.6	8.2
59	O=C(Nc1ccccc1)N1CC(=O)N2[C@@H](CO)[C@H](c3ccc(C#Cc4cccnc4)cc3)[C@@H]2C1	0.5	3.2	0.5
60	C[C@H]1CN([C@@H](C)CO)C(=O)c2cc(NC(=O)Nc3cccc4ccccc34)ccc2O[C@@H]1CN(C)Cc1ccncc1	-4.9	-8.0	3.0
61	C[C@@H]1CN([C@H](C)CO)C(=O)c2cccc(NC(=O)Nc3ccc(F)cc3)c2O[C@@H]1CN(C)C(=O)Nc1ccc(C(F)(F)F)cc1	-3.9	-1.1	-2.1
62	O=C([C@H]1[C@H](CO)[C@H]2Cn3c(ccc(-c4cccnc4)c3=O)[C@H]2N1CC1CC1)N1CCCCC1	0.3	-2.6	-3.4
63	C[C@H](CO)N1C[C@H](C)[C@@H](CN(C)S(C)(=O)=O)Oc2c(cccc2N(C)C)C1=O	-1.2	0.8	1.1
64	COc1ccccc1C#Cc1ccc2c(c1)[C@@H]1[C@@H](CCN1C(=O)CN1CCOCC1)[C@@H](CO)N2	-3.4	-8.3	-1.7
65	COCC(=O)N1[C@H](C#N)[C@@H](c2ccccc2-c2cccc(F)c2)[C@H]1CO	-2.9	-35.1	0.6
66	COc1ccccc1NC(=O)N(C)C[C@@H]1Oc2ncc(C#CC(C)C)cc2C(=O)N([C@H](C)CO)C[C@H]1C	-3.3	-6.1	0.0
67	CN1C(=O)c2cc(NC(=O)c3ccc(Cl)cc3)ccc2OC[C@@H]2O[C@H](CC(=O)O)CC[C@H]21	-0.4	0.7	-0.7
68	O=C(C[C@@H]1C[C@H]2c3cc(NC(=O)Nc4ccccc4F)ccc3O[C@H]2[C@H](CO)O1)NCc1cc(F)ccc1F	-1.1	0.7	3.9
69	O=C(C[C@H]1C=C[C@H](NS(=O)(=O)c2ccc(F)cc2)[C@@H](CO)O1)N1CCc2ccccc2C1	-4.4	-8.6	-0.4
70	CCC(=O)Nc1ccc2c(c1)C(=O)N(C)[C@H]1CC[C@H](CC(=O)NCCc3ccncc3)O[C@@H]1CO2	-0.1	0.7	-1.0
71	COCC#Cc1cnc2c(c1)C(=O)N([C@@H](C)CO)C[C@@H](C)[C@H](CN(C)C(=O)Nc1ccccc1F)O2	2.8	3.6	2.9
72	COc1ccc(CN(C)C[C@@H]2OCCCC[C@@H](C)Oc3ccc(NC(=O)Nc4ccc(F)cc4)cc3C(=O)N([C@@H](C)CO)C[C@@H]2C)cc1	-4.5	-36.7	27.0
73	COc1ccc(CNC(=O)C[C@H]2C[C@@H]3c4cc(NS(=O)(=O)c5ccc(F)cc5)ccc4O[C@@H]3[C@H](CO)O2)cc1	-3.8	-8.2	1.7
